# DUX4 txn inh: blocks DUX4-driven transcriptional activation | 293T-iDUX4 ZSCAN4-Gaussia luciferase reporter, 24 h; stronger effect = lower value | activity change, negative = inhibition, % (test concentration not listed) | 37,000 tested, 0.8% active | AID 1224904;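 active means -10% or lower and over 25 points stronger than a control reporter; inconclusive means -10% or lower with a smaller gap; inactive means above -10%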;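 further: 0% = median of neutral control wells and -100% = median of positive control wells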
# DUX4 txn inh difference: recorded beside DUX4 txn inh, whose call it bears; Gaussia minus Italica difference, %; measured here: selective DUX4 reporter inhibition;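 worked out from the two reporters; negative = selective loss of the DUX4 reporter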
# DUX4 txn inh control: further read-out of DUX4 txn inh, marked with its call; activity change, negative = inhibition, %; measured here: Italica tet-on control reporter;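 0 = neutral control and -100 = positive control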
# * hit, by the source's call; ? = inconclusive; / = no result given; & = joins results of further samples. An excerpt. The share of hits here may be higher or lower than overall.
SMILES,DUX4 txn inh,DUX4 txn inh difference,DUX4 txn inh control
Cc1ccc(S(=O)(=O)Nc2ccc3c(c2)C(=O)N([C@H](C)CO)C[C@H](C)[C@@H](CN(C)C(=O)Nc2c(C)noc2C)O3)cc1,2.6,4.3,-1.7
COc1ccc(CN(C)C[C@@H]2OCc3cn(nn3)CCCC(=O)N([C@H](C)CO)C[C@H]2C)cc1,0.9,-1.6,2.5
O=C(c1cccnc1)N1CC2(C1)[C@H](c1ccccc1)[C@@H](CO)N2C(=O)C1CCC1,9.1,4.7,4.4
CCCNC(=O)N1[C@H](CO)[C@@H](c2ccccc2)[C@@H]1C#N,0.8,0.7,0.1
C[C@@H]1CCCCO[C@H](CN(C)Cc2ccc(C(=O)O)cc2)[C@H](C)CN([C@H](C)CO)C(=O)c2cc(N(C)C)ccc2O1,0.6,0.2,0.4
O=C(c1cccc(F)c1)N1CCCCN2[C@@H](CO)[C@@H](c3ccc(/C=C/c4ccccc4)cc3)[C@@H]2C1,?,/,/
C[C@H](CO)N1C[C@H](C)[C@@H](CN(C)C(=O)Nc2cccc(Cl)c2Cl)OCc2ccccc2-c2c(n(C)c3ccccc23)C1=O,?,/,/
O=C(C[C@@H]1CC[C@H]2[C@@H](COC[C@@H](O)CN2C(=O)Nc2ccc(F)cc2)O1)NC1CCC1,6.2,-4.6,10.8
CN1C(=O)c2cc(NC(=O)Cc3ccccc3)ccc2OC[C@H]2O[C@H](CC(=O)NCc3ccc(Cl)cc3)CC[C@H]21,-0.5,-0.2,-0.3
CO[C@H]1CN(C)C(=O)c2cc(NS(C)(=O)=O)ccc2OC[C@H](C)N(Cc2cncnc2)C[C@H]1C,2.4,0.4,2.0
COCCNC(=O)C[C@@H]1CC[C@H]2[C@H](COc3ccc(NC(=O)Nc4cccc(F)c4)cc3C(=O)N2C)O1,0.7,1.2,-0.5
O=C(c1ccc2c(c1)OCO2)N1C[C@@H]2[C@H](c3ccccc31)[C@H](CO)N2CC1CCCC1,4.3,2.7,1.6

# A different layout for two compounds above.
Structure | DUX4 txn inh | DUX4 txn inh difference | DUX4 txn inh control
C[C@@H]1CCCCO[C@H](CN(C)Cc2ccc(C(=O)O)cc2)[C@H](C)CN([C@H](C)CO)C(=O)c2cc(N(C)C)ccc2O1 | 0.6 | 0.2 | 0.4
O=C(c1cccc(F)c1)N1CCCCN2[C@@H](CO)[C@@H](c3ccc(/C=C/c4ccccc4)cc3)[C@@H]2C1 | ? | / | /

# The listing continues:
SMILES,DUX4 txn inh,DUX4 txn inh difference,DUX4 txn inh control
CN(C)CC(=O)N1CC[C@H]2[C@@H]1c1cc(-c3ccccc3F)ccc1N(C)[C@H]2CO,20.3,12.0,8.3
COc1cccc(CNC(=O)c2cc3c(c(-c4cccc(-c5cccc(C#N)c5)c4)n2)[C@H](CCO)N([S@@](=O)C(C)(C)C)C3)c1,-4.7,1.5,-6.2
O=C(N[C@@H]1C=C[C@H](CC(=O)N2CCc3ccccc3C2)O[C@H]1CO)C1CCC1,7.0,6.2,0.8
Cc1noc(C)c1NC(=O)N(C)C[C@H]1Oc2c(NC(=O)c3cnccn3)cccc2C(=O)N([C@@H](C)CO)C[C@H]1C,-2.1,-2.3,0.1
O=C(C1CCCC1)N1CC2(C1)[C@@H](c1ccccc1)[C@@H](CO)N2CC1CCCC1,?,/,/
N#C[C@@H]1[C@H](c2ccccc2)[C@H](CO)N1C(=O)CCN1CCCCC1,-0.3,-1.4,1.1
O=C(C[C@@H]1CC[C@@H]2NC[C@@H](O)COC[C@H]2O1)NC1Cc2ccccc2C1,5.0,-1.0,6.0
CC(C)CC#Cc1ccc([C@H]2[C@@H](CO)N3C(=O)CN(S(C)(=O)=O)C[C@@H]23)cc1,11.5,4.5,7.0
COc1ccc2c3c(n(C)c2c1)[C@H](CO)N(C(=O)Cc1ccccn1)CC31CN(C)C1,18.0,7.7,10.3
O=C(CC1CC1)N1CC(=O)N2[C@H](CO)[C@@H](c3ccc(C#Cc4ccccc4)cc3)[C@H]2C1,3.2,-5.5,8.7
C/C=C/c1ccccc1[C@@H]1[C@H](C#N)N(c2ncc(CC)s2)[C@H]1CO,8.7,4.5,4.2
CCc1cnc(N2[C@H](CO)[C@H](c3ccc(C4=CCCCC4)cc3)[C@@H]2C#N)s1,-1.2,3.1,-4.3
COc1ccccc1NC(=O)N[C@H]1CC[C@H](CC(=O)N[C@H](C)c2ccccc2)O[C@@H]1CO,-0.2,-5.5,5.3
COc1ccc(CN(C)C[C@@H]2OCCCC[C@@H](C)Oc3ccc(NC(=O)C4CCCCC4)cc3C(=O)N([C@@H](C)CO)C[C@@H]2C)cc1,-1.2,-4.3,3.1
N#Cc1cccc(-c2ccc(C3[C@H]4CNC[C@@H]3N4Cc3cccc(F)c3)cc2)c1 (some centres not stated),?,19.2,-13.2
O=S(=O)(c1cccc(F)c1)N1CC[C@@H]2[C@H]1c1cc(-c3cccc(F)c3)ccc1N[C@@H]2CO,-3.7,-8.2,4.5
CO[C@@H]1CN(C)C(=O)c2cc(NC(C)=O)ccc2OC[C@@H](C)N(Cc2ccncc2)C[C@@H]1C,1.2,-2.3,3.5
O=C([C@@H]1[C@@H](CO)[C@@H]2Cn3c(cccc3=O)[C@H]1N2S(=O)(=O)c1ccccc1F)N1CCCCC1,2.7,0.3,2.4
CCNC(=O)C[C@H]1CC[C@@H]2[C@H](COc3ccc(NC(=O)c4ccc(C(F)(F)F)cc4)cc3C(=O)N2C)O1,5.0,-0.9,5.9
COc1ccccc1NC(=O)N(C)C[C@H]1OCc2ccccc2-c2c(n(C)c3ccccc23)C(=O)N([C@@H](C)CO)C[C@H]1C,-1.8,2.3,-4.1
O=C(NCCCN1CCOCC1)[C@@H]1N[C@@H]2c3ccc(C4=CCCCC4)c(=O)n3C[C@@H]2[C@H]1CO,17.3,15.3,2.0
COCCNC(=O)C[C@@H]1C[C@@H]2c3cc(NC(=O)Nc4ccc(OC)cc4)ccc3O[C@@H]2[C@H](CO)O1,0.1,-3.6,3.6
COc1ccc(NC(=O)N[C@H]2CC[C@@H](CC(=O)NC3CCCCC3)O[C@@H]2CO)cc1,4.2,1.1,3.0
O=C(C[C@H]1C[C@H]2c3cc(NC(=O)CC4CC4)ccc3O[C@H]2[C@@H](CO)O1)NCc1cccc(F)c1,8.9,6.7,2.1
N#C[C@H]1[C@H](c2ccc(C#CC3CC3)cc2)[C@H](CO)N1S(=O)(=O)c1ccccc1,2.6,2.5,0.1
CC(C)C#Cc1ccc([C@H]2[C@@H](CO)N3C(=O)CN(S(=O)(=O)c4ccccc4)C[C@@H]23)cc1,-6.9,-13.4,6.5
C/C=C/c1ccc([C@@H]2[C@H](CO)N(CC3CC3)C23CN(S(=O)(=O)CC)C3)cc1,2.9,6.2,-3.3
C[C@@H]1CN([C@@H](C)CO)C(=O)CCCn2nncc2CO[C@@H]1CN(C)S(=O)(=O)c1ccc(F)cc1,3.0,-3.3,6.3
O=C(Cc1ccccc1)N1C[C@H]2[C@@H](c3ccccc31)[C@@H](CO)N2C(=O)Nc1ccc(F)cc1,-2.8,-0.1,-2.7
COCC(=O)N1[C@H](C#N)[C@@H](c2ccccc2C2=CCCC2)[C@@H]1CO,14.3,13.8,0.4
C[C@H](CO)N1C[C@H](C)[C@H](CN(C)S(=O)(=O)c2cccs2)Oc2ccc(NC(=O)CCN3CCOCC3)cc2C1=O,1.4,-3.3,4.8
O=S(=O)(N[C@H]1CC[C@@H](CCn2cc(Cc3ccccc3)nn2)O[C@@H]1CO)c1ccccc1F,-0.5,1.8,-2.2
CC(=O)N(C[C@H]1N[C@H](CO)[C@@H]1c1ccc(-c2ccccc2)cc1)C(C)C,1.2,-0.2,1.4
CO[C@@H]1CN(C)C(=O)c2ccc(NC(=O)c3cc(C)on3)cc2OC[C@H](C)NC[C@@H]1C,11.6,12.5,-0.9
CC(=O)NC[C@H]1[C@@H](c2ccc(-c3ccccc3F)cc2)[C@@H](CO)N1C(=O)C1CC1,7.2,-1.1,8.3
CN1C(=O)c2cc(NC(=O)c3ccc(Cl)cc3)ccc2OC[C@@H]2O[C@H](CC(=O)NCc3cccc(F)c3)CC[C@H]21,-2.9,-2.0,-1.0

# Reformatted: four of the compounds above
DUX4 txn inh,DUX4 txn inh difference,DUX4 txn inh control,SMILES
-1.2,-4.3,3.1,COc1ccc(CN(C)C[C@@H]2OCCCC[C@@H](C)Oc3ccc(NC(=O)C4CCCCC4)cc3C(=O)N([C@@H](C)CO)C[C@@H]2C)cc1
?,19.2,-13.2,N#Cc1cccc(-c2ccc(C3[C@H]4CNC[C@@H]3N4Cc3cccc(F)c3)cc2)c1 (some centres not stated)
-3.7,-8.2,4.5,O=S(=O)(c1cccc(F)c1)N1CC[C@@H]2[C@H]1c1cc(-c3cccc(F)c3)ccc1N[C@@H]2CO
1.2,-2.3,3.5,CO[C@@H]1CN(C)C(=O)c2cc(NC(C)=O)ccc2OC[C@@H](C)N(Cc2ccncc2)C[C@@H]1C

# Remaining list, next part:
SMILES,DUX4 txn inh,DUX4 txn inh difference,DUX4 txn inh control
CO[C@H]1CC[C@H]2CCN(C)C(=O)[C@@H](C)N(C)C(=O)c3cccc(C#N)c3OC[C@@H]1O2,3.2,2.1,1.1
C[C@H](CO)N1C[C@H](C)[C@@H](CN(C)C(=O)Nc2ccc(F)cc2)Oc2c(cccc2N(C)C)C1=O,-3.8,-4.8,1.0
CO[C@@H]1CN(C)C(=O)c2cc(NS(C)(=O)=O)ccc2OC[C@H](C)N(C(=O)CC2CC2)C[C@H]1C,2.2,5.5,-3.3
C[C@H]1CN([C@@H](C)CO)C(=O)CCCn2nncc2CO[C@@H]1CN(C)Cc1cccc(C(F)(F)F)c1,1.7,3.4,-1.7
CCS(=O)(=O)N1CC2(CN(Cc3cccnc3)[C@H](CO)c3c2c2ccc(OC)cc2n3C)C1,13.9,11.5,2.4
N#C[C@H]1[C@H](c2ccc(C3=CCCCC3)cc2)[C@@H](CO)N1S(=O)(=O)c1ccccc1,-2.3,3.7,-6.0
C[C@@H]1CN([C@H](C)CO)C(=O)CCCn2cc(nn2)CO[C@H]1CN(C)S(=O)(=O)c1cn(C)cn1,1.3,-0.1,1.4
N#C[C@H]1[C@@H](c2ccc(C#CC3CC3)cc2)[C@@H](CO)N1C(=O)c1cccc(F)c1,-1.9,-1.1,-0.7
Cn1cnc(CCNC(=O)C[C@@H]2CC[C@@H]3[C@H](COC[C@@H](O)CN3C(=O)Nc3ccccc3)O2)c1,9.4,7.2,2.2
C[C@H]1CN([C@@H](C)CO)S(=O)(=O)c2ccc(-c3cncnc3)cc2O[C@@H]1CN(C)C(=O)Cc1ccncc1,-3.9,-3.5,-0.4
COc1ccccc1NC(=O)N(C)C[C@@H]1OCc2ccccc2-c2c(n(C)c3ccccc23)C(=O)N([C@@H](C)CO)C[C@@H]1C,?,/,/
COc1ccc2c3c([nH]c2c1)[C@@H](CO)N(C(=O)c1ccncc1)CC31CN(C)C1,21.0,12.0,8.9
CCCNC(=O)NC[C@H]1[C@@H](c2ccc(C3=CCCC3)cc2)[C@@H](CO)N1C(=O)CC,-4.5,2.3,-6.8
CN(C)C(=O)[C@@H]1[C@@H](CO)[C@@H]2Cn3c(ccc(-c4ccc(F)cc4)c3=O)[C@@H]2N1C(=O)c1ccccn1,3.7,5.5,-1.8
O=C(NCC1CC1)[C@@H]1[C@@H](CO)[C@@H]2Cn3c(ccc(-c4cccnc4)c3=O)[C@H]1N2Cc1nccs1,1.7,1.1,0.6
C[C@@H]1CN([C@@H](C)CO)C(=O)c2cc(NC(=O)CCC(F)(F)F)ccc2O[C@@H](C)CCCCO[C@H]1CN(C)S(=O)(=O)c1ccccc1,-3.2,-4.7,1.5
COC(=O)C[C@H]1C[C@@H]2c3cc(NC(=O)c4ccc5c(c4)OCO5)ccc3O[C@@H]2[C@@H](CO)O1,-2.0,-2.8,0.8
COc1ccc(-c2ccc([C@H]3[C@H](CO)N4CCCCN(C(=O)c5ccc(F)cc5)C[C@@H]34)cc2)cc1,-7.2,-8.6,1.5
Cc1noc(C)c1NC(=O)N(C)C[C@@H]1Oc2c(cccc2N(C)C)C(=O)N([C@H](C)CO)C[C@H]1C,4.7,2.8,2.0
Fc1ccc(CN2[C@@H]3CNC[C@H]2C3c2ccc(-c3ccccc3)cc2)cc1 (some centres not stated),18.4&12.0,4.3&6.3,14.1&5.7
O=C(N[C@@H]1CC[C@H](CCNS(=O)(=O)c2ccc(Cl)cc2)O[C@@H]1CO)c1ccccn1,-1.8,4.6,-6.4
O=C(CC1CC1)N1CC(=O)N2[C@@H](CO)[C@H](c3ccc(-c4ccccc4)cc3)[C@@H]2C1,3.5,-0.7,4.2
CN(C)CC(=O)N1CC2(C1)[C@H](c1ccccc1)[C@H](CO)N2C(=O)C1CCCCC1,4.0,-2.6,6.7
COc1cccc(S(=O)(=O)N2C[C@H](O)COC[C@@H]3O[C@@H](CC(=O)N4CCCCC4)CC[C@H]32)c1,8.9,4.8,4.1
COc1ccccc1-c1cccc(-c2nc(C(=O)NCc3ccncc3)cc3c2[C@H](CCO)N([S@@](=O)C(C)(C)C)C3)c1,4.1,2.1,2.0
C[C@@H]1CN([C@H](C)CO)C(=O)c2cc(NS(=O)(=O)c3cn(C)cn3)ccc2O[C@@H](C)CCCCO[C@@H]1CN(C)Cc1ccc2c(c1)OCO2,-2.9,0.6,-3.4
CN(C)C(=O)c1cccc(-c2ccc(C3[C@H]4CNC[C@@H]3N4C(=O)NC3CCCC3)cc2)c1 (some centres not stated),12.0&3.5,-3.9&17.3,15.9&-13.8
C[C@H]1CN([C@@H](C)CO)C(=O)CCCn2cc(nn2)CO[C@H]1CN(C)C(=O)CCCN(C)C,4.0,3.8,0.1
CCCNC(=O)[C@@H]1[C@@H](CO)[C@@H]2Cn3c(ccc(-c4ccc(F)cc4)c3=O)[C@@H]2N1CC1CC1,2.0,9.4,-7.4
C[C@@H]1CCCCO[C@@H](CN(C)C(=O)c2ccccc2)[C@@H](C)CN([C@@H](C)CO)C(=O)c2cc(NS(=O)(=O)c3ccc(F)cc3)ccc2O1,-1.1,-1.6,0.5
CCc1nc(N2[C@@H](C#N)[C@H](c3ccccc3-c3ccc(F)cc3)[C@@H]2CO)sc1C,6.0,3.8,2.1

# Screening data: PubChem, Broad Institute
